Screens: PubChem, Southern Research Institute
total CFTR: total CFTR protein upregulators, primary screen, cell-based, HeLa F508del-CFTR, immunofluorescence, viability (AID 1224863); 10,000 tested, 0.1% active; calls, or highest fold increase where a dose series was run; HeLa F508del-CFTR, immunofluorescence total CFTR, 24 h; by the record results were divided by relative cell number; some inactives read as strong as hits; in the data nearly all actives have a first-pass fold increase above 1.5; a few of its hits are not listed in these tables;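 also: total CFTR protein by anti-CFTR immunofluorescence in fixed cells; first pass at 25 µM or 10 µg/mL by library and series up to twice that; 1 = untreated cells; first-pass hits also needed half or more of the cells alive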
total CFTR fold 25 µM: also measured in total CFTR; calls as there; fold increase; measured here: primary screen single dose 25 uM; library dosed in µM
total CFTR fold 10 ug/mL: second read-out of total CFTR, no call of its own (marks repeat the call); fold increase; measured here: primary screen 10 ug/mL
total CFTR viability 25 µM: also measured in total CFTR; calls as there; viability, %; measured here: primary viability 25 uM; library dosed in µM;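 0% = killed and 100% = untreated cells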
total CFTR viability 10 ug/mL: also measured in total CFTR; calls as there; viability, %; measured here: primary viability 10 ug/mL;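 0% = killed and 100% = untreated cells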
Numbers without * were called inactive; i = inactive; . = no result given; & = joins results of further samples. Only part of the results is shown; the hit share may differ from the screen's.

SMILES | total CFTR | total CFTR fold 10 ug/mL | total CFTR viability 10 ug/mL | others
COc1ccc(NS(=O)(=O)c2cc3c(cc2Br)NC(=O)CO3)cn1 | i | 0.95 | 94.0
CC(=O)c1cc(C#N)c(SCC(=O)c2c(N)n(C3CC3)c(=O)[nH]c2=O)nc1C | i | 1.02 | 101.0
CC1(C)C(C=C(Cl)Cl)C1C(=O)OCc1cccc(Oc2ccccc2)c1 (centres undefined) | i | . | . | total CFTR fold 25 µM=1.03;total CFTR viability 25 µM=105.0
CCCNC(=O)NC(C)(C)C(=O)O | i | 1.12 | 104.0
Cc1noc(C(C)C)c1C(=O)NCc1ccc(C)n1C | i | 1.24 | 90.0
CC(CN1CCOCC1)NC(=O)C1CCC1 (centres undefined) | i | 0.96 | 100.0
COc1cc(/C=C/S(=O)(=O)c2ccc([N+](=O)[O-])cc2)ccc1OC(F)F | i | 1.01 | 81.0
O=c1c2ccccc2cc2sc3ccccc3n12 | i | 0.97 | 96.0
Cc1noc(C)c1S(=O)(=O)N1CCNC(=O)C1 | i | 1.06 | 85.0
N[C@H]1CONC1=O | i | . | . | total CFTR fold 25 µM=1.08;total CFTR viability 25 µM=106.0
C=CCn1c(COc2ccccc2-c2ccccc2)nnc1SCC(=O)c1ccc(O)cc1O | i | 0.95 | 88.0
Cc1cc(/C=C/C(=O)N2CCN(C(=O)c3cccs3)CC2)c(C)n1C1CC1 | i | 1.18 | 89.0
Cn1ccc(S(=O)(=O)N2CCN(C(=O)CCC(=O)c3cccs3)CC2)c1 | i | 1.19 | 103.0
CNC(=O)NC(=O)C(C)Sc1nc2sc3c(c2c(=O)[nH]1)CCCC3 (centres undefined) | i | 1.02 | 103.0
CC(=O)N(CC(O)CN(C(C)=O)c1c(I)c(C(=O)NCC(O)CO)c(I)c(C(=O)NCC(O)CO)c1I)c1c(I)c(C(=O)NCC(O)CO)c(I)c(C(=O)NCC(O)CO)c1I (centres undefined) | i | . | . | total CFTR fold 25 µM=1.15;total CFTR viability 25 µM=89.0
c1ccc(-n2c(SCCc3ccncc3)nnc2-c2ccncc2)cc1 | i | 1.13 | 108.0
CC(C)CC1NC(=O)N(CC(=O)N2CCCCCCC2)C1=O (centres undefined) | i | 1 | 100.0
N#Cc1c(COc2ccc(F)cc2F)cn2ccccc12 | i | 1.24 | 83.0
C[C@@H](O)[C@H]1C(=O)N2C(C(=O)O)=C(S[C@@H]3CN[C@H](C(=O)N(C)C)C3)[C@H](C)[C@H]12 | i | . | . | total CFTR fold 25 µM=1.08;total CFTR viability 25 µM=95.0
CC1CCCCN1C(=O)CCc1nc2sc3c(c2c(=O)[nH]1)CCCC3 (centres undefined) | i | 1.05 | 99.0
CCn1nnnc1SCN1C(=O)c2ccccc2C1=O | i | 1.1 | 99.0
O=C1c2ccccc2C(=O)N1CSCCSCN1C(=O)c2ccccc2C1=O | i | 0.97 | 100.0
OCCCc1nc2ccccc2n1CC(O)COC(c1ccc(F)cc1)c1ccc(F)cc1 (centres undefined) | 1.77 | 1.69 | 81.0
CN(C)CCC(c1ccc(Cl)cc1)c1ccccn1 (centres undefined) | i | . | . | total CFTR fold 25 µM=0.99;total CFTR viability 25 µM=104.0
Cc1cc(C2Nc3ccccc3C(=O)N2Cc2ccco2)c(C)n1C1CC1 (centres undefined) | i | 1.27 | 94.0
CCN(CC)S(=O)(=O)c1ccc(S(=O)(=O)N2CCC(N3CCc4ccccc4C3)CC2)cc1 | i | 0.95 | 78.0
CNC(=O)NC(=O)C(C)Sc1nnc(C)n1C (centres undefined) | i | 0.85 | 93.0
Cc1cc(C)n(-c2ccc(SC(C)C(=O)NC3CC3)nn2)n1 (centres undefined) | i | 0.88 | 88.0
CCn1c(SCC(=O)c2c(N)n(C3CC3)c(=O)[nH]c2=O)nnc1N1CCOCC1 | i | 1.07 | 100.0
CN1CCC(OC(c2ccccc2)c2ccccc2)CC1 | i | . | . | total CFTR fold 25 µM=0.99;total CFTR viability 25 µM=92.0
c1ccc([C@H]2CN3CCSC3=N2)cc1 | i | . | . | total CFTR fold 25 µM=1.08&0.94&0.98;total CFTR viability 25 µM=91.0&95.0&92.0
CCN1CCN(CC(=O)O)C(=O)C1=O | i | 0.89 | 102.0
NC(=O)c1ccsc1NC(=O)CCC(=O)NC1CCCC1 | i | 1.04 | 99.0
CC(C)(C)NCC(O)c1cc(O)cc(O)c1 (centres undefined) | i | . | . | total CFTR fold 25 µM=1.08;total CFTR viability 25 µM=81.0
CC(C)c1ccc(-n2nnnc2SCc2nc(N)nc(N(C)C)n2)cc1 | i | 1.17 | 91.0
Cc1cc(C)n(-c2ccc(SCC(=O)C(C)(C)C)nn2)n1 | i | 1.2 | 97.0
CC1CN(S(=O)(=O)N2CCN(CCOc3ccccc3F)CC2)CC(C)O1 (centres undefined) | i | 0.93 | 98.0
Cc1cc(NC(=O)N2CCc3sccc3C2)no1 | i | 0.89 | 83.0
CCN(CC)S(=O)(=O)c1ccc(CNC(=O)C23CC4CC(CC(Cl)(C4)C2)C3)s1 | i | 0.94 | 99.0
CCOC(=O)Nc1nc2ccccc2[nH]1 | i | . | . | total CFTR fold 25 µM=1;total CFTR viability 25 µM=83.0
Cc1cc(C(=O)NCc2ccc(Cl)s2)on1 | i | 0.99 | 92.0
CS(=O)(=O)c1cc(C(=O)c2ccccc2O)cn2c1nc1ccccc12 | i | 0.87 | 84.0
CC1CCC(NC(=O)C2CC=CCC2)CC1 (centres undefined) | i | 0.96 | 93.0
Cc1ccc(/C(=C\CN2CCCC2)c2ccccn2)cc1 | i | . | . | total CFTR fold 25 µM=1.02&1.06;total CFTR viability 25 µM=105.0&101.0
CS(=O)(=O)NC1CCCN(c2nc(-c3ccccc3)nc3ccccc23)C1 (centres undefined) | i | 0.95 | 91.0
CSc1ncc(C(=O)OCC2CC2(Cl)Cl)n1-c1ccc(F)cc1 (centres undefined) | i | 0.85 | 86.0
COc1ccc(OC)c2c1CN(Cn1nc3ccccn3c1=O)CC2O (centres undefined) | i | 1.13 | 99.0
FC(F)n1ccnc1CSc1nnc(Nc2ccccc2)s1 | i | 0.97 | 94.0
O=c1n(Cc2ccc(Cn3nc4n(c3=O)CCCCC4)cc2)nc2n1CCCCC2 | i | 0.97 | 86.0
C=C(C)CSc1n[nH]c(C(C)(C)C)n1 | i | 0.93 | 95.0

The list continues.
SMILES | total CFTR | total CFTR fold 10 ug/mL | total CFTR viability 10 ug/mL | others
CC(C)(C)OC(=O)N1CCN(c2ccc3ncccc3c2[N+](=O)[O-])CC1 | i | 0.89 | 100.0
Cc1noc(C)c1S(=O)(=O)N1CCCC(C(=O)NC(C)C2CC3CCC2C3)C1 (centres undefined) | i | 0.92 | 104.0
CN1CCCCC1CCSc1nnc(NCCc2cccs2)s1 (centres undefined) | i | 1 | 105.0
Cc1cc(CN(C)S(=O)(=O)c2ccc(C)s2)no1 | i | 1.11 | 96.0
C=CCOc1ccc(CN(C)Cn2c(=O)oc3cc(Cl)ccc32)cc1 | i | 0.99 | 104.0
Cc1cc(C(=O)COc2ncnc3sc4c(c23)CCC4)c(C)n1CC(F)(F)F | i | 1.02 | 100.0
